HTT promoter inh – HTT promoter inhibition | HEK293 HTT promoter firefly luciferase reporter (activity 0% = vehicle and -100% = no light), 24 h | Potency, µM (top dose mostly 57.5 µM), inactives show top-dose activity change, negative = inhibition, usual class: inhibitors | hit rate 0.93% among 48,000; active = well fitted inhibition curve with a large enough effect; inconclusive = small, poorly fitted or top-dose-only effect; inactive = no such curve, though single readings can be large or run the other way; also: nearly all actives have a fitted effect of over 50% in size
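HEK293 Fluc reporter, 2,500 cells/well, 24 h pre-culture; cpds up to 57.5 uM final, 24 h 37 degrees C; Dual-Glo, 10 min RT; normalized vehicle = 0%, zero RLU = -100%.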
PMP22 txn prim – PMP22 gene transcription modulation; Potency, µM (titrated, usually from 57.5 µM), for inactives: at the highest dose activity change, negative = inhibition, usual class: inhibitors; hit rate 2% among 43,000; S16 Pmp22-F2sN Schwann cells (luciferase reporters placed in the Pmp22 gene), FLuc/NLuc coincidence luminescence, 24 h; active = clear falling dose curves in both reporters; inconclusive = both reporters move, but less clearly or upward; inactive = either reporter flat; the % is the NLuc reporter signal; also: % is scaled to controls: 0 for no effect and ±100 for the full control effect; some results filed as inactive show a strong effect at the top dose
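S16(c9) Schwann cells with FLuc/NLuc coincidence reporter in the Pmp22 3' UTR; compounds pin-transferred, 24 h at 37C. Dual-luciferase read: FLuc first, then NLuc after Stop&Glo, each 10 min at room temperature.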
* marks the source's active call; other numbers are inactive results; ? = inconclusive; nt = no result given; & = joins results of further samples; [ ] = dose if it differs, or a comment. Potency is read from the fitted curve at half-maximal effect.

SMILES	HTT promoter inh	PMP22 txn prim
CC(C)(C)C(=O)Nc1ccc2nc(SCC(=O)N3CCCC3)sc2c1	25%	?
CCN1CCC(N(Cc2ccc3c(c2)OCO3)C(=O)Nc2cc(Cl)ccc2C(=O)OC)CC1	-28%	?
CN(C)c1ccc(CNC(=O)CN(C)S(=O)(=O)c2ccc3c(c2)c(=O)n(C)c(=O)n3C)cc1	-17%	4%
Cc1ccc(CNC(=O)CCc2c(C)nc3c(-c4ccc(F)cc4)c(C)nn3c2C)cc1	-14%	-3%
CC1=C(C(=O)Nc2ccc(C)cc2C)C(c2ccccc2[N+](=O)[O-])n2ncc(C(=O)Nc3ccccc3)c2N1 (centres undefined)	17%	-25%
CSc1cccc(N2C(=O)N(CC(=O)NCc3ccccc3Cl)c3ccccc3S2(=O)=O)c1	-30%	?
O=c1c(N2CCN(c3cccc(Cl)c3)CC2)csc2ccc(Cl)cc12	17%	-18%
O=C(Nc1nnc(S(=O)(=O)N2CCCC2)s1)c1ccccc1Br	-16%	3%
Cc1ccc(-n2c(-c3cccc(C)c3)nc3c(cnn3-c3ccccc3)c2=O)cc1	0%	?
CCCNC(=O)Cn1nc(-c2ccc(C)c(C)c2)c2cnc3ccc(F)cc3c21	-10%	-20%
CCOC(=O)c1cc(S(=O)(=O)Nc2cc(C)c(Cl)cc2OC)[nH]n1	-16%	-20%
CCOc1ccc(NC(=O)Cn2cc(C(=O)c3ccc(CC)cc3)c(=O)c3cc4c(cc32)OCO4)cc1	-7%	?
COc1ccccc1NC(=O)N1CC(=O)Nc2sc3c(c2C1c1ccccc1)CCCC3 (centres undefined)	-3%	?
CC(Sc1oc(-c2ccco2)nc1S(=O)(=O)c1ccc(Br)cc1)c1ccccc1 (centres undefined)	-25%	-5%
CCN1CCN(CCCNC(=O)c2cc3c(=O)n(CC)c4ccccc4c3s2)CC1	7%	?
OC(CN1CCC(Cc2ccc(F)cc2)CC1)c1ccc(Cl)cc1 (centres undefined)	23%&-3%	nt
CCOc1ccccc1NC(=O)c1c(NCc2ccc(C)o2)sc2c1CCC(C)C2 (centres undefined)	-3%	2%
CCc1ccc(CNC(=O)CN2C(=O)c3cccnc3Oc3ccc(Cl)cc32)cc1	-7%	-24%
CCOC(=O)c1c(-c2ccccc2)csc1NC(=O)c1cc(=O)c2ccc(C)cc2o1	-2%[11.5 µM]	-24%
Cc1cccc(C(=O)Nc2ccc(N3CCN(c4ccc(F)cc4)CC3)c(C(=O)O)c2)c1	1%	-8%
COc1cccc(-c2cc(C(=O)Nc3ccc(Br)c(C)c3)[nH]n2)c1	4%	22%
Cc1ccc(CNC(=O)c2ccc(-n3c(C)cc4c3CCCC4)cc2)cc1	-4%	?
CSc1ccc(CNC(=O)CCn2c(=O)c3cccn3c3ccc(F)cc32)cc1	-8%	-26%
COc1cc(C(=O)Nc2sc3c(c2C#N)CCCC3)c(Br)c(OC)c1OC	-8%	13µM*
CC(=O)N[C@H]1[C@@H]([C@H](O)[C@H](O)CO)OC(C(=O)O)=C[C@@H]1N=C(N)N	6%	nt

In a second layout: entries from further up
Screens in order: HTT promoter inh, PMP22 txn prim
> Cc1ccc(-n2c(-c3cccc(C)c3)nc3c(cnn3-c3ccccc3)c2=O)cc1
 : 0%, ?
> Cc1cccc(C(=O)Nc2ccc(N3CCN(c4ccc(F)cc4)CC3)c(C(=O)O)c2)c1
 : 1%, -8%
> CCN1CCN(CCCNC(=O)c2cc3c(=O)n(CC)c4ccccc4c3s2)CC1
 : 7%, ?
> CCCNC(=O)Cn1nc(-c2ccc(C)c(C)c2)c2cnc3ccc(F)cc3c21
 : -10%, -20%

(list continues)
SMILES	HTT promoter inh	PMP22 txn prim
CCc1nc(Nc2ccc(F)c(Cl)c2)c2c3c(sc2n1)CCCC3	?	-60%
CCN(CC)CCCNC(=O)Cn1c(-c2cccs2)cc2cc(Cl)ccc21	-27%	?
CCOC(=O)c1ccc(NC(=O)CCc2c(C)nc3c(c(C)nn3C)c2C)cc1	-26%	-18%
O=c1oc2ccc3ccccc3c2cc1-c1nnc(Nc2ccc(F)cc2)s1	-3%	-13%
COc1ccc(N2CC(NC(=O)COc3cccc(C)c3)CC2=O)cc1OC (centres undefined)	-9%	-4%
COc1ccc(-c2nc3c4ccccc4n(CC(=O)Nc4ccc(C(C)=O)cc4)c(=O)n3n2)cc1	10%	-17%
CCCn1ccc2c(OCC(=O)Nc3ccccc3C(=O)OCC)cccc2c1=O	-23%	14µM*
CCCOc1ccc(Nc2nc(SC)ncc2C(=O)OCC)cc1	-20%	-14%
COc1ccc(-c2cc(-c3ccccc3)nc(SCC(=O)CC(=O)OC(C)C)c2C#N)cc1	?	?
CC(=O)c1ccc(NC(=O)C2CCN(S(=O)(=O)c3ccc4[nH]c5c(c4c3)CCCCC5)CC2)cc1	?	10%
Cc1cc(C)cc(NC(=O)CCCn2nc(C)c3c(C)n(-c4ccccc4)nc3c2=O)c1	-4%	15%
CCC(Sc1nc2n[nH]c(C)c2c(=N)n1-c1ccccc1Cl)C(=O)N(CC)CC (centres undefined)	-10%	?
Cc1c(C(=O)Nc2ccccc2F)sc2nc3n(c(=O)c12)CCC3	80%[activator]	-20%
Cc1nc2nncn2c(Nc2ccccc2)c1C	?	?
Nc1ncnc2nc(-c3ccc(N4CCOCC4)nc3)cc(-c3cccc(Br)c3)c12	15%	nt
CCOC(=O)c1ccc(NC(=O)CC2Nc3cc(C)c(C)cc3NC2=O)cc1 (centres undefined)	8.9µM*	?
Cc1ccc(C)c(NC(=O)CCc2nc3cccnc3n2Cc2cccs2)c1	-20%	-10%
Cc1ccccc1Nc1ncnc2c1cnn2C	-6%	-16%
Cc1ccccc1-c1nc(CS(=O)(=O)CC(=O)NCCCc2ccccc2)c(C)o1	-29%	-5%
COC(=O)CN1C(=O)C(C)(C)c2cc(S(=O)(=O)NCc3ccc(Cl)cc3)ccc21	-7%	7%
COc1ccc(Nc2ncc(C(=O)N3CCN(c4ccc(F)cc4)CC3)c3ccccc23)cc1	?	?
COc1ccc(NC(=O)CCS(=O)(=O)c2ccc3c(c2)oc(=O)n3C)cc1OC	1%	5%
CCCCN(CCCC)C(=O)c1c[nH]c2ccc(S(=O)(=O)Nc3cccc(Cl)c3C)cc2c1=O	?	6%
C[C@H]1O[C@@H](n2cc(F)c(=O)[nH]c2=O)[C@H](O)[C@H]1O	-5%	nt
CC1(C)O[C@H]2[C@@H](O1)[C@@H](C(=O)Nc1ccccc1C(F)(F)F)O[C@@H]1OC(C)(C)O[C@@H]12	-32%	?

(continued)
SMILES	HTT promoter inh	PMP22 txn prim
Fc1ccccc1-c1nc(N2CCN(c3cccc(Cl)c3)CC2)c2ccccc2n1	?	4%
COc1ccc(CNC(=O)Cc2c(C)c3cc4c(C)coc4c(C)c3oc2=O)cc1	-10%	-12%
Cc1ccc(Oc2c(C(F)(F)F)oc3c(CN4CCCCC4C)c(O)ccc3c2=O)cc1 (centres undefined)	?	?
CCC(CC)C(=O)Nc1cc(-c2ccccc2F)nn1-c1ccccc1	-15%	15%
Cc1cccc(CNC(=O)CN2C(=O)C3CCCCN3c3ccc(C(=O)N4CCCC4)cc32)c1 (centres undefined)	-5%	-8%
CCc1ccccc1Nc1cc(C(=O)NC(C)c2ccccc2)c2ccccc2n1 (centres undefined)	7%	?
Cc1ccc(NC(=O)Cn2c(=O)oc3ccccc32)cc1C	-18%	?
Cc1ccc([N+](=O)[O-])cc1S(=O)(=O)N1CCn2cccc2C1c1ccccc1 (centres undefined)	9%	?
CC(C)OCCCNC(=O)CCCn1c(SCC(N)=O)nc2c(sc3ccccc32)c1=O	-13%	-29%
COc1ccc(C2=NN(S(C)(=O)=O)C(c3cn(-c4ccccc4)nc3-c3cccs3)C2)cc1 (centres undefined)	-7%	70%
COc1ccc2c(CNCCc3ccco3)c(C(=O)O)n(Cc3ccc(F)cc3)c2c1	-21%	0%
CC(C)(C)c1ccc(C(=O)Nc2nnc3n2CCS3)cc1	0%	?
Cc1ccc(S(=O)(=O)C(CNC(=O)C(=O)NCCc2ccc(Cl)cc2)c2ccco2)cc1 (centres undefined)	?	-57%
CCc1ccc(S(=O)(=O)c2nnn3c2nc(NC2CCCC2)c2sccc23)cc1	7%	-15%
COc1ccccc1NC(=O)CSc1cn(CC(=O)N2CCCC2)c2ccccc12	-4%	3%
O=C(Nc1nnc(S(=O)(=O)N2CCc3ccccc32)s1)c1ccccc1Cl	-25%	-4%
COc1ccc(-n2c(=O)c3c(c4cc(OC)ccc4n3C)n(C)c2=O)cc1	-11%	2%
COc1ccc(NC(=O)Cn2c(=O)c3cccn3c3ccccc32)cc1	-7%	7%
CCOc1ccc(-n2c(SCC(=O)Nc3ccccc3OC)nc3c(oc4ccccc43)c2=O)cc1	-13%	3%
CCc1ccc(NC(=O)Cn2c(=O)n(CCCCC(=O)NCc3ccc4c(c3)OCO4)c(=O)c3ccccc32)cc1	?	?
Cc1cccc(NC(=O)Cn2nc(-c3ccc(Cl)cc3)c3ccccc3c2=O)c1	-13%	?
Cc1ccc(NC(=O)c2cc(S(=O)(=O)NCCc3ccc(Cl)cc3)ccc2F)cc1	?	?
O=C(c1ccco1)c1cn(CCOc2ccc(F)cc2)c2ccccc12	-11%	?
Cc1onc(-c2c(F)cccc2Cl)c1C(=O)Nc1ccc(OC(C)C)cc1	-13%	?
CCC(=O)N1CCc2cc(Br)cc(S(=O)(=O)CCC(=O)N(C)c3cccc(C)c3)c21	-2%	-10%

Next records:
SMILES	HTT promoter inh	PMP22 txn prim
O=C(Nc1ccccc1)c1cccc(S(=O)(=O)Nc2cccc(F)c2)c1	?	-15%
CCc1ccc(-n2c(=O)c3c(C)c(C)sc3n(CC(=O)NCc3ccc(C)cc3)c2=O)cc1	2%	9%
COc1ccc(-c2nc(C)c(CCNC(=O)c3ccc(F)c(F)c3)s2)cc1	-17%	-14%
COc1ccccc1N1CCN(c2ccc(-c3nc(-c4ccccc4)no3)cc2[N+](=O)[O-])CC1	-2%	-13%
Cc1ccc(CNC(=O)Cn2c(=O)n(-c3cccc(Cl)c3)c(=O)c3sc4ccccc4c32)cc1	-11%	9.5µM*
Cc1ccc(-n2nc(C(=O)Nc3cccc(C#N)c3)c3c4ccccc4n(C)c3c2=O)cc1	-7%	6%
O=C(NCc1ccc(Cl)cc1)C1CCN(c2nn3cc(-c4ccc(F)cc4)nc3s2)CC1	4%	-9%
CC(C)c1ccc(C2=CC(c3ccc(C(C)C)cc3)n3nnnc3N2)cc1 (centres undefined)	-12%	-22%
COc1ccc(CNC(=O)Cn2c(=O)oc3cc(S(=O)(=O)NCc4ccccc4)ccc32)cc1	?	-11%
COc1ccccc1NC(=O)c1oc2ccccc2c1NC(=O)COc1ccccc1OC	5%	-30%
COc1ccc(S(=O)(=O)c2c(O)c(C)cc(NS(=O)(=O)c3ccc(Cl)cc3)c2C(C)C)cc1	?	?
O=C(NC1CCCC1)c1ccc(CSc2nc3cccnc3n2Cc2ccccc2)cc1	-21%	?
Cc1cc(C)c2c(=O)c3c(oc2c1)C(=O)N(Cc1ccco1)C3c1ccccc1F (centres undefined)	-13%	-22%
CCCS(=O)(=O)N1CCCC(C(=O)NCCCOC)C1 (centres undefined)	-12%	-6%
O=C(Nc1ccc(Cl)cc1Cl)c1cc(S(=O)(=O)N2CCN(c3ccccc3F)CC2)ccc1F	?	-2%
COCCCNC(=O)c1sc2nc(C)c(C(=O)Nc3ccc(Cl)cc3)c(-c3ccc(Br)cc3)c2c1N	-28%	-21%
CC1CCN(S(=O)(=O)c2ccc3c(c2)N(CC(=O)N(C)Cc2ccccc2)C(=O)CO3)CC1	-9%	-8%
COc1cccc(-n2c(-c3ccco3)nc3c(cnn3-c3ccc(Cl)cc3)c2=O)c1	?	?
CCc1ccc(OCCn2c(C3CC(=O)N(Cc4ccc(F)cc4)C3)nc3ccccc32)cc1 (centres undefined)	?	?
CC(=O)Nc1ccc(OCC(O)CNC(C)C)cc1 (centres undefined)	8%	nt
O=C(CCn1c(=O)c2ccccc2n(Cc2cccc(F)c2)c1=O)NCc1ccc2c(c1)OCO2	-9%	29%
O=C(Cn1cc(C(=O)C2CC2)c2ccccc21)Nc1ccc(Br)cc1	-10%	?
CCn1cc(S(=O)(=O)c2cccc(Cl)c2)c(=O)c2cc(F)c(N3CCN(C)CC3)cc21	-18%	?
CCn1ccc2cc(S(=O)(=O)N3CCC(C(=O)NCCc4ccc(SC)cc4)CC3)ccc21	0%	?
Cc1ccc(NC(=O)CCCn2c(=O)c3cccn3c3cccnc32)c(Cl)c1	1%	-28%
CCOc1ccc(C(=O)c2c(N)c(-c3nc(-c4ccc(OCC)cc4)cs3)c3ccccn23)cc1	-12%	15%

Record cards, as listed above. Values in the order: HTT promoter inh, PMP22 txn prim
COCCCNC(=O)c1sc2nc(C)c(C(=O)Nc3ccc(Cl)cc3)c(-c3ccc(Br)cc3)c2c1N is listed with -28%, -21%
CCc1ccc(-n2c(=O)c3c(C)c(C)sc3n(CC(=O)NCc3ccc(C)cc3)c2=O)cc1 is listed with 2%, 9%
O=C(NCc1ccc(Cl)cc1)C1CCN(c2nn3cc(-c4ccc(F)cc4)nc3s2)CC1 is listed with 4%, -9%
O=C(CCn1c(=O)c2ccccc2n(Cc2cccc(F)c2)c1=O)NCc1ccc2c(c1)OCO2 is listed with -9%, 29%
O=C(Nc1ccc(Cl)cc1Cl)c1cc(S(=O)(=O)N2CCN(c3ccccc3F)CC2)ccc1F is listed with ?, -2%

Bioassay records: PubChem BioAssay, National Center for Advancing Translational Sciences (NCATS)
